2A firefly: FMDV 2A StopGo reporter, firefly signal; HEK cells with a luciferase reporter of 2A StopGo recoding; hit rate 0.23% among 120,000; Potency, µM (top dose mostly 57.5 µM), without a hit: at the highest dose signal change, negative = less light; active = well fitted falling curve with a large enough effect; inconclusive = small, poorly fitted or top-dose-only effect; inactive = no such curve, though single readings can be large or run the other way; note: nearly all actives have a fitted effect of over 60% in size; overnight with compound
2A Renilla: FMDV 2A StopGo reporter, Renilla signal. AID 1745857. hit rate 0.32% among 120,000. Potency, µM (series often up to 57.5 µM), inactives show at the highest dose signal change, negative = less light. HEK cells with a luciferase reporter of 2A StopGo recoding; active means well fitted falling curve with a large enough effect; inconclusive means small, poorly fitted or top-dose-only effect; inactive means no such curve, though single readings can be large or run the other way; note: nearly all actives have a fitted effect of over 55% in size; overnight with compound
An asterisk follows results filed as active; ? = inconclusive; & = joins results of further samples; [ ] = remark or other dose. % is set by controls: 0 for no effect and ±100 for the full control effect; potency is the fitted concentration of half-maximal effect.

SMILES	2A firefly	2A Renilla
Cc1ccc(NC(=S)NCC(C)(C)N2CCCCC2)cc1Cl	16%	11%
CS(=O)(=O)NCCc1csc2nc(-c3ccccc3)nn12	-8%	8%
O=c1cc(-c2cccc(Br)c2)oc2ccc(Cl)cc12	147%[activator]	122%[activator]
c1ccc(Oc2ncnc3scc(-c4ccc(-c5ccccc5)cc4)c23)cc1	0%	1%
Cc1ccc2c(COC(=O)CNS(=O)(=O)c3ccccc3)cc(=O)oc2c1	10%	-3%
Cn1ccc2cc(S(=O)(=O)N3CCC(C(=O)NCCc4ccccc4)CC3)ccc21	-19%	1%
COc1cccc(NC(=O)CSC2=Nc3ccccc3C3=NC(CC(=O)NC4CCCCC4)C(=O)N23)c1 (stereo not given)	?	?
O=C(NC1CCCC(C(F)(F)F)C1)C1CCCCC1 (stereo not given)	2%	3%
COc1cc(NC(=O)c2cc3c(=O)n(Cc4cccs4)ccc3nc2C)cc(OC)c1OC	-11%	-4%
Cc1ccc(NS(=O)(=O)c2ccc(-n3cccn3)cc2)c(Br)c1	-24%	41%[activator]
Cc1scc(C(=O)NCCC2=CCCCC2)c1C	14%	5%
COc1cc2c(N3CCN(C(=O)Nc4ccc(OC(C)C)cc4)CC3)ncnc2cc1OCCCN1CCCCC1	21%[11.5 µM]	-7%
CCOc1ccccc1N(C)C(=O)Cn1nc(Cc2ccncc2)c2ccccc2c1=O	3%&-21%	12%&-6%
CCCCCCCC/C=C/C(=O)O	-5%[11.5 µM]	24%
CCC1CCCCN1S(=O)(=O)c1ccc(NC(=O)c2cc(=O)c3c(C)cc(C)cc3o2)cc1 (stereo not given)	-14%	-7%
COc1ccc(S(=O)(=O)Nc2cccc(CCc3nc4ccccc4n3C)c2)cc1OC	-25%	36%[activator]
Cc1ccc(CN2CCCn3nc(C(=O)NCCc4ccccc4Cl)cc3C2=O)cc1	16%	-3%
Cc1c(-c2ccccc2)oc2c(C(=O)OCC(=O)Nc3c(F)cccc3F)cccc2c1=O	0%	25%
O=C(Nc1c(NC2CCCCC2)c2ccccc2oc1=O)c1cccc(Cl)c1	-2%	-10%
O=C(O)c1cc(S(=O)(=O)Nc2ccccc2C(=O)NC2CC2)ccc1F	-8%	-8%
Cc1ccc(-c2nnc(SCC(=O)NC3CCCC3)nc2-c2ccc(C)cc2)cc1	-12%	-10%
CC(=O)Nc1ccccc1-c1nc2ccccc2n(CC(=O)Nc2cccc(C)c2C)c1=O	-21%	-13%
CC(=O)N1CCc2cc(S(=O)(=O)NC(CC(C)C)C(=O)Nc3ccc(C(C)C)cc3)ccc21 (stereo not given)	15%	-1%
COc1ccc(NC(=O)CSc2nc3c(cnn3-c3ccc(C)c(C)c3)c(=O)[nH]2)cc1	0%	1%
CCOC(=O)CC(NC(=O)c1cc2ccccc2oc1=O)c1ccc(OC)cc1 (stereo not given)	126%[activator]	15%
COc1ccc(CC(=O)n2nc(-c3cccc(C)c3)nc2N)cc1	52%[activator]	-5%
CSc1ccc(-c2nc3cccc(C)n3c2Nc2ccc3c(c2)OCO3)cc1	30%[activator]	13%
CCN[C@@H](C)Cc1ccccc1	-2%[27 µM]	-9%[129 µM]
O=C(NCc1cccnc1)c1ccc2ccccc2n1	18%	6%
Cc1ccc(-c2nc3cc(C(C)C)ccc3o2)cc1NC(=O)c1cccnc1	86%[activator]	-7%
COc1cccc(N2CCN(S(=O)(=O)c3cn(C)c(C)n3)CC2)c1	-2%	3%
CCOc1cc(C(=O)Nc2cc3c(cc2N2CCCC2)n(C)c(=O)c(=O)n3C)cc(OCC)c1OCC	-19%	-7%
CCOc1ccccc1NC(=O)c1ccc2oc(=O)c(S(=O)(=O)c3ccc(F)cc3)cc2c1	-18%	-10%
Cc1ccc(S(=O)(=O)NCC(c2ccccc2)c2ccccc2)cc1	-10%	8%[1.06 µM]
CCn1cc(/C=C(\NC(=O)c2ccco2)C(=O)NCCN2CCOCC2)c2ccccc21	4%	-3%
CCCc1cc(C(=O)Nc2c(C)nn(Cc3ccc(Cl)c(Cl)c3)c2C)no1	?	?
Cc1cccc(C)c1OCC(=O)Nc1nonc1-c1ccc(Br)cc1	-3%	12%
CCCOc1ccc(C2c3c(-c4c(C)cc(C)cc4O)n[nH]c3C(=O)N2CCO)cc1 (stereo not given)	36%[activator]	-8%
CCOc1cc2c(cc1CNC(=O)c1cc(S(N)(=O)=O)c(Cl)cc1Cl)OC(C)C2 (stereo not given)	36%[activator]	76%[activator]
Cc1ccc(N2CC(NC(=O)c3ccc(S(=O)(=O)N4CCCCC4)cc3)CC2=O)cc1 (stereo not given)	-18%	5%
COc1ccc(Oc2c(C)oc3cc(OCC(=O)N4CCNC(=O)C4)ccc3c2=O)cc1	11%	1%
Nc1nccnc1C(=O)NCc1ccc(Oc2cccc(F)c2)nc1	?	8.9µM*
Cc1onc(-c2ccccc2)c1-c1nnc(CN2CCN(CC(=O)N3CCCCCC3)CC2)o1	8%	0%
Cn1c(=O)c2c(ncn2Cc2nc(-c3cccc(C(F)(F)F)c3)no2)n(C)c1=O	23%	8%
Cc1ccc2oc(=O)c(-c3nc(-c4ccccn4)no3)cc2c1	21%	7%
COc1cc(NC(=O)c2ccc(N3C(=O)CCS3(=O)=O)cc2)cc(OC)c1OC	-5%	4%
COc1ccc(OC)c(S(=O)(=O)Nc2ccc3c(c2)n(C)c(=O)n3C)c1	23%	387%[activator]
CCCNC(=O)[C@@H](NC(=O)[C@@H]1Cc2ccccc2CN1C(=O)OC(C)(C)C)C(C)C	3%	9%
COc1ccc(C2C(=O)N(C3CCCCCC3)CC(=O)N2CCc2ccc(Cl)cc2)cc1OC (stereo not given)	-18%	-8%
Cc1cc(C)cc(NC(=O)CSc2c(C(C)C)cnc3c2c(=O)n(C)c(=O)n3C)c1	-18%	-5%
CC(=O)Nc1ccc(NS(=O)(=O)c2c(C(=O)N3CCC(C)CC3)c(C)n(C)c2C)cc1	-16%	1%
COc1ccc(/C=C/C(=O)Sc2ccc(Cl)cc2)cc1	3%	-7%
c1ccc(-c2cc3c(Oc4cccc5ccccc45)ncnc3s2)cc1	15%	9%
COC(=O)c1nc2n(n1)C(c1ccccc1F)C(C(=O)Nc1ccc(C)cc1C)=C(C)N2 (stereo not given)	-11%	-6%
CCn1nc(C)c2c(-c3ccccc3)cc(OC(C)C(=O)Nc3cccc(OC)c3)nc21 (stereo not given)	16%	7%
Cc1ccccc1NC(=O)CSc1nc(-c2ccccc2C)nc2cc(=O)[nH]n12	-2%	91%[activator]
O=C(CCSc1nc(Cl)nc2nc[nH]c12)NCc1ccccc1	5%	19%
O=C(Cn1nc(C(=O)O)c2ccccc2c1=O)Nc1cccc(Br)c1	5%	-9%
O=C(c1cc(-c2cccs2)nc2ccccc12)N1CCN(C(=O)C2CC2)CC1	87%[activator]	61%[activator]
COc1ccccc1CNC(=O)CS(=O)Cc1nc(-c2cccc(C)c2)oc1C (stereo not given)	12%	-2%
Going on with the list.
SMILES	2A firefly	2A Renilla
Cc1ccccc1C(C)NC(=O)c1cccnc1 (stereo not given)	8%	16%
Cn1nc(C(=O)N2CCc3sccc3C2)c2ccccc2c1=O	9%	-2%
CC(=O)Oc1cccc2cc(-c3nc(-c4ccc(F)cc4)no3)c(=O)oc12	20%	-8%
Cc1nnc(NC(=O)c2cccn(Cc3cccc(Cl)c3)c2=O)s1	-10%	-7%
Cc1ccc(-c2csc(NC(=O)Cn3cnc4c3c(=O)n(C)c(=O)n4C)n2)cc1C	0%	-7%
N#C/C(=C(\O)CCCl)c1ccccn1	13%	-7%
Cc1ccccc1-c1nnn(CC(=O)Nc2sc3c(c2C#N)CCC(C(C)(C)C)C3)n1 (stereo not given)	-21%	-15%
CCCOc1nc2ccccc2nc1N1CCC(C(N)=O)CC1	-10%	-7%
O=C(O)/C=C/c1csc2ccccc12	56%[activator]	-4%[1.06 µM]
CC(=O)Nc1ccc(S(=O)(=O)[C@H]2CS(=O)(=O)C[C@@H]2N2C[C@H](C)C[C@H](C)C2)cc1	9%	-7%
CC(C)NC(=O)c1ccccc1Br	4%	-13%
CCCCCn1nc(C(=O)N2CCN(c3ccccn3)CC2)c2ccccc2c1=O	-1%	59%[activator]
CCOc1ccc(NS(=O)(=O)c2ccc(-c3cnc(C4CC4)o3)cc2)cc1	-5%	66%[activator]
Cc1ccc(CNC(=O)CCc2ncc(-c3ccc(C)c(C)c3)o2)cc1	-8%	-8%
CCOc1ccc2c(C)c(CC(=O)O)c(=O)oc2c1	4%	-8%
Cc1ccc(-n2nc3c(N4CCC(C(=O)NC(C)c5ccccc5)CC4)nnc(C)c3c2C)cc1 (stereo not given)	?	12%
Cc1ccc(C(=O)NCC(c2ccco2)N2CCCCC2)s1 (stereo not given)	21%	-5%
Cc1cccc(-n2ncc3c(Nc4ccc(Oc5ccc(Cl)cc5)cc4)ncnc32)c1	65%[activator]	-7%
Cc1cc(C)[n+](C)n1-c1ccccc1	7%	5%[1.06 µM]
O=C1CC2(CCCC2)CC(=O)N1CCCCN1CCN(c2ncccn2)CC1	-15%[11.5 µM]	-15%
Cc1ccc(-n2nc(C)c3c(C)cc(=O)n(CC(=O)NCc4ccc(OC(C)C)cc4)c32)cc1	-22%	-22%
Cc1ccc(C)c(NC(=O)C2CCCN2S(=O)(=O)c2ccc3c(c2)n(C)c(=O)c(=O)n3C)c1 (stereo not given)	3%	-8%
O=C(CCc1ncc(-c2ccc(Cl)cc2)o1)Nc1cc(F)cc(F)c1	0%	25%
Cc1nn(CCC(=O)NCc2cccc(Br)c2)c(=O)c2nn(-c3ccccc3)c(C)c12	-17%	14%
COc1cccc(NS(=O)(=O)c2ccc3c(c2)N(C)C(=O)CC(=O)N3C)c1	15%	65%[activator]
Cn1nc(-c2ccc(N3CCCC3)c([N+](=O)[O-])c2)c2ccccc2c1=O	-2%	-1%
CC(CNC(=O)CCc1nnc2n(CCc3ccccc3)c(=O)c3ccccc3n12)c1ccccc1 (stereo not given)	10%	-5%
O=C(Nc1cc(C(F)(F)F)ccc1C(=O)O)c1ccc(F)cc1F	-22%	?
N#Cc1ccc(C(=O)NCCSC(F)(F)F)cc1	29%	5%
CCc1c(C)[nH]c2c1C(=O)C(CN1CCOCC1)CC2 (stereo not given)	-19%	-14%
CC1CCN(C(=O)CSc2nc(-c3ccc(C(C)C)cc3)no2)CC1	94%[activator]	-5%
Cc1ccc(C(=O)Nc2nnc(S(=O)(=O)N3CCOCC3)s2)cc1	-1%	-5%
CCc1ccc(S(=O)(=O)Nc2ccc(-c3ccc(N4CCCCCC4)nn3)cc2)cc1	41%[activator]	-8%
CN1CCOC(CNCc2cccc(C#N)c2)C1 (stereo not given)	-4%	-11%
C=C(C)CC1NC2CC(C)(C)C1c1c(Br)cccc12 (stereo not given)	45%[activator]	?
CC1(c2ccccc2)NC(=O)N(NC(=O)c2n[nH]c(=O)c3ccccc23)C1=O (stereo not given)	18%	12%
CCOC(=O)c1c(C)[nH]c(C(=O)CN(C)Cc2cccc(F)c2)c1C	125%[activator]	90%[activator]
O=C1CSc2ccc(C(=O)OCc3cc(-c4ccccc4)on3)cc2N1	24%	7%
O=S(=O)(c1ccc(F)cc1)N1CCN(c2nc3ccccc3o2)CC1	7%	4%
Cc1ccc(CNCCN(C)C)s1	23%	2%

Structural class: the compounds so far containing an aryl thioether with sulfur outside any ring (7)
SMILES	2A firefly	2A Renilla
Cc1ccc(-c2nnc(SCC(=O)NC3CCCC3)nc2-c2ccc(C)cc2)cc1	-12%	-10%
COc1ccc(NC(=O)CSc2nc3c(cnn3-c3ccc(C)c(C)c3)c(=O)[nH]2)cc1	0%	1%
CSc1ccc(-c2nc3cccc(C)n3c2Nc2ccc3c(c2)OCO3)cc1	30%[activator]	13%
Cc1cc(C)cc(NC(=O)CSc2c(C(C)C)cnc3c2c(=O)n(C)c(=O)n3C)c1	-18%	-5%
Cc1ccccc1NC(=O)CSc1nc(-c2ccccc2C)nc2cc(=O)[nH]n12	-2%	91%[activator]
O=C(CCSc1nc(Cl)nc2nc[nH]c12)NCc1ccccc1	5%	19%
CC1CCN(C(=O)CSc2nc(-c3ccc(C(C)C)cc3)no2)CC1	94%[activator]	-5%

Following part.
SMILES	2A firefly	2A Renilla
CC(C)N1CCC(NC(=O)CC23CC4CC(CC(C4)C2)C3)CC1	-9%	7%
CCN(CC)S(=O)(=O)c1ccc(C)c(NCc2ccc(C#N)cc2)c1	-9%	6%
Cc1[nH]c2ccccc2c1C(=O)O	0%	1%[1.06 µM]
O=C(Nc1ccc(N2CCC(c3ccccc3)C2)c(C(=O)O)c1)c1cccc(Cl)c1 (stereo not given)	0%	-3%
Cc1ccc(OCCn2cc(C(=O)c3ccco3)c3ccccc32)cc1C	18%	9%
Cc1ccc(/C(COc2ccc3c(C)c(Cc4ccccc4)c(=O)oc3c2)=N/O)cc1	6%&70%	1%&80%
CCCNC(=O)COC(=O)c1ccc2nc(C)c(C)nc2c1	-6%	-16%
CC1=C(c2ccc(C)c(C)c2)S(=O)(=O)N=C1N1CCC(C(=O)NC(C)Cc2ccco2)CC1 (stereo not given)	1%	4%
CCc1nccn1S(=O)(=O)c1cc(C)c(C)cc1OC	8%	40%[activator]
Cc1cccc(N2CCN(CCCNC(=O)c3sc4ncccc4c3-n3cccc3)CC2C)c1 (stereo not given)	-20%	4%
CN1CCN2c3ccccc3Cc3ccccc3C2C1 (stereo not given)	-13%[11.5 µM]	-15%

Complete entries, looked up by structure.
CC(C)N1CCC(NC(=O)CC23CC4CC(CC(C4)C2)C3)CC1 is entered as 2A firefly = -9%; 2A Renilla = 7%
N#Cc1ccc(C(=O)NCCSC(F)(F)F)cc1 is entered as 2A firefly = 29%; 2A Renilla = 5%

From PubChem BioAssay

Only part of the results is shown; rates above refer to the full screens.
